Cruzain inh Det: blocks cruzain activity in presence of Triton detergent; Potency, µM, for the others: max response, negative = inhibition, actives largely listed as inhibitors; 200,000 tested, 0.43% active; purified cruzain, Z-FR-AMC fluorescence, 0.01% Triton;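 also: plate controls were neutral wells for no effect and buffer without enzyme for full effect; nearly all actives have a fitted effect of over 40% in size; top concentration of the series not given in the record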
Target sequence (P25779 123-467 limits assumed): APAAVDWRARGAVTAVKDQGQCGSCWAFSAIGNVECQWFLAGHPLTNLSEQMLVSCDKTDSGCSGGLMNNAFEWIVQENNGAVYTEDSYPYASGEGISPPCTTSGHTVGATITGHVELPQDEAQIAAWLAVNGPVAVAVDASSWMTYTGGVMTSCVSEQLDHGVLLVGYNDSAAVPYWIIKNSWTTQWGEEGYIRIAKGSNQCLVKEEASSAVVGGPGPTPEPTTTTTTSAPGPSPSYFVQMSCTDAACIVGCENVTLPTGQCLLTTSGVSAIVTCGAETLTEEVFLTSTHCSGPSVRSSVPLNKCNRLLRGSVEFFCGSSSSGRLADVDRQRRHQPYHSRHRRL
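Read-out: AMC fluorescence (360 nm excitation, 450 nm emission), four reads over 2 min, first-to-third difference used. Conditions: cruzain 1.5 nM, Z-FR-AMC 2 uM, pH 5.5 acetate, 5 mM DTT, 0.01% Triton X-100.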
LASV entry inh: inhibitors of Lassa virus binding or cell entry | 300,000 tested, 1.2% active | Lassa virus pseudotype entry inhibition, cell reporter; control for the full effect not named in the record | Potency, µM (titrated, usually from 37.9 µM), without a hit: at the highest dose activity change, negative = inhibition, most hits filed as inhibitors | AID 540256; active means well fitted inhibition curve with a large enough effect; inconclusive means small, poorly fitted or top-dose-only effect, or effect the other way; inactive means flat fitted curve, though single readings scatter; tested in HEK293 cells; also: % is scaled to controls: 0 for no effect and ±100 for the full control effect; nearly all actives have a fitted effect of over 50% in size; luciferase read-out
NS1 inh: inhibitors of influenza NS1 protein function; 270,000 tested, 0.4% active; S. cerevisiae slowed by influenza A NS1, growth recovery by OD600; AID 2326; Potency, µM (highest dose often 46.1 µM), for the others: at the highest dose activity, positive = more growth; active means well fitted rising curve with a large enough effect; inconclusive means small, poorly fitted or top-dose-only effect; inactive means no such curve, though single readings can be large or run the other way; also: nearly all actives have a fitted effect of over 50% in size
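In this qHTS, NS1 from influenza A is expressed in budding yeast, where it slows growth. Cells are switched from glucose to 2% galactose medium (pH 6.0, -URA), treated with compound, and growth recovery is read at OD600.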
2A StopGo: FMDV 2A StopGo reporter, luciferase signal; human cells with a luciferase reporter of 2A StopGo recoding; control for the full effect not named in the record; Potency, µM (highest dose often 57.9 µM), for the others: top-dose signal change, negative = less light; AID 1159524; 410,000 tested, 1.2% active; active = well fitted falling curve with a large enough effect; inconclusive = small, poorly fitted or top-dose-only effect; inactive = no such curve, though single readings can be large or run the other way; tested in HEK293T cells; also: % is scaled to controls: 0 for no effect and ±100 for the full control effect; nearly all actives have a fitted effect of over 45% in size; luciferase light after 4 h
Cruzain inh noDet: cruzain (T. cruzi) inhibition without detergent. 200,000 tested, 2.3% active. purified cruzain, Z-FR-AMC fluorescence, no detergent. P25779. Potency, µM, for the others: max response, negative = inhibition, actives largely listed as inhibitors;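 also: plate controls were enzyme without inhibitor for no effect and buffer without enzyme for full effect; nearly all actives have a fitted effect of over 40% in size; top concentration of the series not given in the record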
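Detergent-free condition (0.00005% Triton X-100) in acetate buffer pH 5.5 with DTT. 1.5 nM enzyme and compound were pre-mixed 15 min, then 2 uM Z-FR-AMC substrate added; reaction progress from fluorescence change between first and third reads (60 s).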
RE007 growth inh: less growth of the S. pombe RE007 Vpr strain. 360,000 tested, 0.21% active. Potency, µM (highest dose often 92.2 µM), without a hit: at the highest dose activity change, negative = less growth. AID 651644. S. pombe RE007 Vpr strain, BacTiter-Glo ATP luminescence, 24 h; control for the full effect not named in the record; active = well fitted falling curve with a large enough effect; inconclusive = small, poorly fitted or top-dose-only effect; inactive = no such curve, though single readings can be large or run the other way;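 also: % is scaled to controls: 0 for no effect and ±100 for the full control effect; nearly all actives have a fitted effect of over 50% in size; the assay follows cell death caused by Vpr and the record does not say whether a fall means rescue or toxicity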
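Fission yeast RE007 carrying one integrated HIV-1 vpr copy, seeded at OD 0.01 in PMG+AL medium with 23 nL pinned compound. Grown 24 h at 30 degrees; viability read by BacTiter-Glo luminescence after 5 min.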
Marburg entry inh: blocks Marburg virus binding to or entry into cells; Marburg virus pseudotyped entry inhibition, cell reporter; control for the full effect not named in the record; about a third of the inactives were read at about 46 µM; AID 540276; Potency, µM (titrated, usually from 37.8 µM), without a hit: at the highest dose activity change, negative = inhibition, hits mostly inhibitors; 300,000 tested, 1.8% active; active = well fitted inhibition curve with a large enough effect; inconclusive = small, poorly fitted or top-dose-only effect, or effect the other way; inactive = flat fitted curve, though single readings scatter; tested in HEK293 cells; about a fifth of its hits are not listed in these tables; also: % is scaled to controls: 0 for no effect and ±100 for the full control effect; luciferase read-out
SARS PLP yeast: SARS-CoV PLP inhibition in yeast; AID 485353; Potency, µM (highest dose often 32.9 µM), for the others: at the top dose activity, positive = growth rescue; S. cerevisiae expressing SARS-CoV PLpro, growth rescue; control for the full effect not named in the record; 330,000 tested, 0.19% active; active means well fitted rising curve with a large enough effect; inconclusive means small, poorly fitted or top-dose-only effect; inactive means no such curve, though single readings can be large or run the other way; also: 0% is about no effect; nearly all actives have a fitted effect of over 55% in size; growth read by luminescence after 48 h
* marks the source's active call; other numbers are inactive results; ? = inconclusive; . = no result given; & = joins results of further samples; [ ] = dose if it differs, or a comment. Unless noted, calls follow the shape of the dose curve; as a rule, active = well fitted curve in the direction sought with a large enough effect; inconclusive = small, poorly fitted or top-dose-only effect, or another doubt; inactive = no such curve, though single readings can be large; an effect the other way counts as inactive or inconclusive. Potency is read from the fitted curve at half-maximal effect.

SMILES | Cruzain inh Det | LASV entry inh | NS1 inh | 2A StopGo | Cruzain inh noDet | RE007 growth inh | Marburg entry inh | SARS PLP yeast
COc1ccc(CCN2C(=O)C3CC=C(C)CC3C2=O)cc1OC (stereo not drawn) | -1.1% | 13% | -5% | -14% | 4% | 7% | 3% | 10%
CC1CCN(S(=O)(=O)N2CCN(C(=O)c3ccc4c(c3)OCO4)CC2)CC1 | . | . | -2% | -10% | . | 23% | ? | -1%
O=C(Nc1cccnc1)c1noc2c1CCCCC2 | 4.4% | ? | -7% | -21% | 4% | ? | -17% | -8%
Cc1ccc(NC(=O)CSc2nnc(C3CC3)n2CC2CCCO2)cc1C (stereo not drawn) | . | -12% | 1% | 15% | . | -1% | -19%[46.1 µM] | 0%
CN1CCN(NC(=O)CC(C)(C)C)CC1 | . | -18%[46.1 µM] | . | -14% | . | -15% | 8%[46.1 µM] | 1%
CCS(=O)(=O)c1c(S(=O)(=O)CC)c2ccccn2c1C(N)=O | . | 0% | . | -8% | . | -1% | 0% | 0%
Cc1cc(C(=O)NC2CC(C)(C)Cc3c2cnn3-c2ccc(F)cc2)nn1C (stereo not drawn) | . | . | -8% | 5% | . | 6% | . | 9%
COc1ccc(C(C(=O)NC2CCCCC2)N(C(=O)CCl)c2ccccc2Cl)cc1 (stereo not drawn) | 2.1% | -1% | 7% | 7% | 11% | 5% | -5% | 14%
Cc1ccc(S(=O)(=O)N(C)CC(=O)N2CC(C)OC(C)C2)cc1 (stereo not drawn) | . | 26%[46.1 µM] | 22% | 5% | . | 12% | 4%[46.1 µM] | ?
Cc1ccccc1CN1CCC(Oc2ccc(C(=O)N3CCCC3)cc2)CC1 | . | -7%[46.1 µM] | 2% | 17% | . | 2% | -24%[46.1 µM] | 0%
Cc1nnc(SCC(=O)Nc2cc(C(F)(F)F)ccc2Cl)n1C | . | . | -1% | -1% | . | 11% | . | 4%
COc1ccccc1NC(=O)CSc1nnc(Cn2nnc(-c3ccccc3)n2)n1-c1ccccc1 | 3.7% | -16% | ? | -21% | 2% | 2% | ? | 2%
O=S(=O)(NCc1ccccc1)NCc1cccc(C(F)(F)F)c1 | . | -3%[46.1 µM] | . | 20% | . | -22% | ? | 2%
O=C(CSc1nc2ccccc2nc1Cc1ccccc1)NCc1ccccc1Cl | 2.9% | 10%[46.1 µM] | . | -11% | 9% | . | . | .
CCOc1cc(N2CCOCC2)c(OCC)cc1NC(=O)COC(=O)c1cc(C)oc1C | 4.0% | 4% | ? | -2% | -17% | -12% | 0%&0% | 2%
O=[N+]([O-])c1ccc(O)c(C2=NNC(c3ccccc3F)C2)c1 (stereo not drawn) | . | ? | -45% | ? | . | -17% | ? | -2%
CC(=O)c1cccc(NC(=S)NC(=O)c2cccc(Cl)c2)c1 | -7.5% | -6% | -7% | 22% | 7% | 23% | ? | -12%
Cc1ccccc1NC(=S)N(CCCN1CCOCC1)Cc1cccnc1 | . | -2%[46.1 µM] | . | -4% | . | 9% | 1%[46.1 µM] | 6%
Clc1ccc(Cl)c(OCCCCNCc2ccccc2)c1 | -1.9% | -27% | -31% | -23% | 12% | -6% | ? | -27%
CCOC(=O)C1CCCN(CCC(=O)Nc2ccc(C)c(C)c2)C1 (stereo not drawn) | . | -3% | . | 0% | . | -5% | ? | 1%
NC(=O)COC(=O)c1ccccc1OCc1ccccc1Cl | . | 5%[46.1 µM] | . | 3% | . | -5% | ? | 3%
COC(=O)c1c(NC(=O)Cc2ccc(OC)c(S(=O)(=O)N3CCOCC3)c2)sc(C)c1C | . | -10% | . | -16% | . | -13% | ? | 0%
Cc1cc(C(F)(F)F)nc(SCC(=O)c2cccc([N+](=O)[O-])c2)n1 | -2.4% | -2% | 5% | -12% | -5% | 21% | -3% | 2%
O=C1C2C3C=CC(C2C(=O)N1C1CCCCC1)C1C2C(=O)N(C4CCCCC4)C(=O)C2C31 (stereo not drawn) | -1.4% | ? | -3% | 0% | -25% | 11% | 0% | -3%
CC(C)(C)c1cc(OC(=O)Cc2ccccc2)ccc1O | . | . | -59% | -7% | . | 5% | . | 1%
COc1ccc(C2(OC)Oc3cc(OC)ccc3C(=O)C2(O)OC)cc1 (stereo not drawn) | . | ? | . | ? | . | 0% | ? | .
CCOC(=O)CN(Cc1ccccc1)C(C(=O)NC1CCCCC1)c1ccc(C)cc1 (stereo not drawn) | 0.5% | 4%[46.1 µM] | . | -1% | -10% | . | -1%[46.1 µM] | .
O=C(CSc1nnc2scc(-c3ccccc3)n12)NCc1ccc2c(c1)OCO2 | -1.0% | ? | -16% | 7% | -1% | 18% | 13% | 6%
NS(=O)(=O)c1ccc(CCNC(=O)c2cnccn2)cc1 | . | 1% | -32% | 15% | . | 1% | 1%[46.1 µM] | 2%
Cc1cccc(OC(=O)CN2C(=O)C3C4CCC(C4)C3C2=O)c1C (stereo not drawn) | 3.5% | -22% | -23% | -5% | 8% | -12% | 21% | -8%
Nc1nnc(SCC(=O)c2ccccc2)s1 | 2.1% | 17% | -7% | 54%[activator] | -10% | 5% | 16% | -2%
Cc1c(NC(=O)C(C)OC(=O)c2cc(-c3cccc4ccccc34)nc3ccccc23)c(=O)n(-c2ccccc2)n1C (stereo not drawn) | -6.3% | 5% | 11µM* | ? | ? | . | ? | 15%
CC(C)(C)c1ccc(OCc2nnc(SCC(N)=O)n2N)cc1 | . | -2% | . | 4% | . | -2% | -4%[46.1 µM] | 1%
CCNC(=S)N1CCN(c2nc(-c3cccc(OC)c3)cs2)CC1 | . | . | 19% | -14% | . | 3% | . | 5%
Cc1cc(SCC(=O)c2cccs2)nc2ccccc12 | -7.5% | 4% | 6% | 78%[activator] | 6% | -9% | 11% | -5%
CCOC(=O)c1sc2nc(Cc3ccc(Cl)cc3)[nH]c(=S)c2c1C | . | . | 3% | -20% | . | -10% | . | -1%
Nc1[nH]c(=O)[nH]c(=O)c1N=Cc1ccccc1 | . | 25% | . | 15% | . | 46% | 20% | .
Cc1nc2ccn(Cc3cccnc3)c(=O)c2cc1C(=O)N1CCN(c2ccccc2)CC1 | -0.6% | -9%[46.1 µM] | . | 0% | -5% | . | . | .
CC1=CC2=C(OC1N(C)C)c1cccc3cccc(c13)C2=O (stereo not drawn) | -10% | 11% | -72% | 5% | -14% | -25% | -3% | -13%
CC1CN(C(=O)c2cc(S(=O)(=O)N3CCCCC3)ccc2Cl)CC(C)O1 (stereo not drawn) | . | 0% | . | -12% | . | 10% | 9% | 2%
CCOC(=O)c1ccc(CN(Cc2ccc(F)cc2)S(=O)(=O)c2ccc(F)c(C(=O)Nc3ccc(Cl)cc3F)c2)cc1 | 0.9% | 28%[46.1 µM] | . | -11% | 0% | . | . | .
O=C(Nc1ccc(Oc2ncnc3cc(Cl)ccc23)nc1)Nc1cccc(C(F)(F)F)c1 | . | 2% | 2% | 11% | . | 3% | 9%[46.1 µM] | 0%
CCOC(=O)CSc1nc2ccc(C)cc2[nH]1 | -5.8% | 7% | -14% | 48%[activator] | -1% | -2% | 9% | 27%
O=C(Nc1cc(C(F)(F)F)ccc1N1CCOCC1)c1cnccn1 | . | . | 8% | -19% | . | 6% | . | 0%
O=C(N1CCCC1)C12CC3CC(CC(Cl)(C3)C1)C2 | . | . | -4% | -26% | . | 2% | . | 2%
Cc1ccc(OCCOCCN(C)C)c(Cl)c1 | 5.4% | 5% | 3% | -18% | 11% | 7% | -3% | 5%
Cc1ccc(Cn2c(=O)c3ccccc3n3c(CCC(=O)NCCN4CCOCC4)nnc23)cc1 | . | 8%[46.1 µM] | -18% | 3% | . | 104% | 1%[46.1 µM] | -3%

Given tab-delimited: entries from further up.
SMILES	Cruzain inh Det	LASV entry inh	NS1 inh	2A StopGo	Cruzain inh noDet	RE007 growth inh	Marburg entry inh	SARS PLP yeast
CC1=CC2=C(OC1N(C)C)c1cccc3cccc(c13)C2=O (stereo not drawn)	-10%	11%	-72%	5%	-14%	-25%	-3%	-13%
CC1CN(C(=O)c2cc(S(=O)(=O)N3CCCCC3)ccc2Cl)CC(C)O1 (stereo not drawn)	.	0%	.	-12%	.	10%	9%	2%
CCOC(=O)c1ccc(CN(Cc2ccc(F)cc2)S(=O)(=O)c2ccc(F)c(C(=O)Nc3ccc(Cl)cc3F)c2)cc1	0.9%	28%[46.1 µM]	.	-11%	0%	.	.	.
O=C(Nc1ccc(Oc2ncnc3cc(Cl)ccc23)nc1)Nc1cccc(C(F)(F)F)c1	.	2%	2%	11%	.	3%	9%[46.1 µM]	0%
CCOC(=O)CSc1nc2ccc(C)cc2[nH]1	-5.8%	7%	-14%	48%[activator]	-1%	-2%	9%	27%
O=C(Nc1cc(C(F)(F)F)ccc1N1CCOCC1)c1cnccn1	.	.	8%	-19%	.	6%	.	0%
O=C(N1CCCC1)C12CC3CC(CC(Cl)(C3)C1)C2	.	.	-4%	-26%	.	2%	.	2%
Cc1ccc(OCCOCCN(C)C)c(Cl)c1	5.4%	5%	3%	-18%	11%	7%	-3%	5%
Cc1ccc(Cn2c(=O)c3ccccc3n3c(CCC(=O)NCCN4CCOCC4)nnc23)cc1	.	8%[46.1 µM]	-18%	3%	.	104%	1%[46.1 µM]	-3%
